# AF4-AF9 inh: MLL-AF4/AF9 protein interaction inhibition. AlphaScreen, biotin-AF4 peptide binding to FLAG-AF9. inhibition, % at 10 µM. 0.47% of 350,000 active. AID 651704;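 active = every replicate reaching a set inhibition limit, whatever the replicate mean, cut at about 25% in these data; inconclusive = mean inhibition reaches that limit but some replicates miss it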;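 note: 0% = plate neutral control median and 100% = total signal loss; the record names both 10 and 1 µM as test concentration; the first replicate is given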
# HNF4A DNA FP: change in binding of human HNF4 alpha to DNA; 0.3% of 360,000 active; HNF4a-FITC DNA binding, fluorescence polarization, 1 h; P41235; activity change, % at 10 µM; in the data active = activity change above about 30%, passing the limit was not always enough;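 note: controls were the assay level and a saturating level of protein; the project sought stronger binding though the title names inhibitors; some compounds called inactive have numbers as strong as hits; positive values seem to mean higher polarization but the record does not say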
# Target sequence (P41235 whole entry, looked up): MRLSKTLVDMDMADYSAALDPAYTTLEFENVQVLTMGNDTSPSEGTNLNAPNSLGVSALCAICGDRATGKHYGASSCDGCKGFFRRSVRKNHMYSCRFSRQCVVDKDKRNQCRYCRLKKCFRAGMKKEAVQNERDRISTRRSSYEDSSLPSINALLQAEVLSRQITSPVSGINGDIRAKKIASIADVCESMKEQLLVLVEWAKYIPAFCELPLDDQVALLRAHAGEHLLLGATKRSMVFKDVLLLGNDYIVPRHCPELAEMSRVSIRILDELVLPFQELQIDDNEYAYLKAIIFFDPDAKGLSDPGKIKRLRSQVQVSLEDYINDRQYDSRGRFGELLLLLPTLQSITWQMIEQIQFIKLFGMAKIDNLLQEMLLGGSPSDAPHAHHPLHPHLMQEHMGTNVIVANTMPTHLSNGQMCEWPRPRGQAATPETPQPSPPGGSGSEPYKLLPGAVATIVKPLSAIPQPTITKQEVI
# UCH37 inh: blocks the human deubiquitinase UCH37; 0.33% of 330,000 active; inhibition, % (test concentration not listed); purified proteasome/UCH37, Ub-AMC cleavage fluorescence; AID 588478;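 active = mean of two replicates above 20%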;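 note: 0% = compound-free wells with enzyme and 100% = wells lacking proteasome; stock transfer was 100 nL into about 20 µL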
# Target sequence (Q9Y5K5 whole entry, looked up): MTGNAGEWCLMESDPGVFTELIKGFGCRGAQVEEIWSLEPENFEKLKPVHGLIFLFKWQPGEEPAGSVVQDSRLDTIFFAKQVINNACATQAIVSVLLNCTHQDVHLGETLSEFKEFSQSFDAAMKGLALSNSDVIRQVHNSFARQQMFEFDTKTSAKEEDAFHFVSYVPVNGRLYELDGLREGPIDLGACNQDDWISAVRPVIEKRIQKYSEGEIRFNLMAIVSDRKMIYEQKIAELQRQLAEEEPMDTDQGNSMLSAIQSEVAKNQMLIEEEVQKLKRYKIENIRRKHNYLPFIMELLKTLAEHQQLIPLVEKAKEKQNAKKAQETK
#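 System: Proteasome-associated human UCH37 deubiquitinase; Input: 0.15 nM proteasome in added enzyme buffer; Also added: Ub-AMC substrate from 1 µM stock; Incubation: 30 min compound-proteasome preincubation then 25 min substrate reaction, room temperature; Detection: fluorescence, ex 355 nm, em 460 nm; Read-out: % inhibition of Ub-AMC cleavage fluorescence; Benchmarks: no-proteasome and no-compound wells.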
# RanGTP-Impb inh: disruptors of Ran-importin-beta complex formation – biochemical, FRET, CFP-Ran, YFP-importin-beta, homogeneous, primary screen | cell-free CFP-Ran/YFP-importin-beta FRET ratio | inhibition, % (test concentration not listed) | 1.1% of 300,000 active;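 active = most replicates above 15%; inconclusive = exactly half above 15%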;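 note: 0% = DMSO wells and 100% = Ran loaded with GDP instead of GTP; wells of about 40 µL received 100 nL stock; the first replicate is given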
# Vif A3G: HIV-1 Vif–A3G interaction blockers – biochemical, TR-FRET, GST-Vif 1-94, biotin-A3G peptide, dose response retest, primary screen (AID 1117319). TR-FRET GST-Vif / biotin-A3G peptide binding; higher % means a stronger effect; test concentration not given here; strong numbers were not always called active. inhibition, %, or IC50 in µM where a hit was titrated. 0.57% of 260,000 active;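 active = above the screen mean plus three standard deviations and confirmed in dose response; inconclusive = results disagree or hit not tested in dose response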;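 note: Vif residues 1-94 fused to GST binding biotinylated APOBEC3G peptide 110-148; 0% = full assay without inhibitor and 100% = GST in place of GST-Vif; retest series ran down from 100 µM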
# FGF22 binding: shifts melting point of recombinant human FGF22 | recombinant FGF22 thermal shift, SYPRO orange fluorescence; percent of sucrose octasulfate shift, DMSO zero | 1.5% of 340,000 active | AID 651658 | Q9HCT0 | calls only at 9.99 µM;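 active = melting point raised past a set limit in the mean and every replicate; inconclusive = no clear call; three in four hits are not shown here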
# Target sequence (Q9HCT0 whole entry, looked up): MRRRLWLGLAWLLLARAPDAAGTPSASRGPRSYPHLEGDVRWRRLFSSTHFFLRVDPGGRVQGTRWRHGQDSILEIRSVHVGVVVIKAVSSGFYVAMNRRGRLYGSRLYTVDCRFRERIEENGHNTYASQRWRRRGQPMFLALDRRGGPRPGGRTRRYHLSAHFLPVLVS
# E coli growth: E. coli growth inhibition; Escherichia coli growth, OD600, 23 h; active compounds read low; OD600 absorbance (test concentration not listed); 0.21% of 330,000 active; AID 1053175;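 active = OD600 absorbance below the run mean of sample wells minus 3.6 SD, in any replicate, cut at about 0.56 in these data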;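 note: stock transfer was 300 nL into about 60 µL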
# * marks the source's active call; other numbers are inactive results; i = inactive; ? = inconclusive; nt = not tested or not shown; & = joins results of further samples. These rows are one share of the data; count on the stated rates, not on these rows.
mol	AF4-AF9 inh	HNF4A DNA FP	UCH37 inh	RanGTP-Impb inh	Vif A3G	FGF22 binding	E coli growth
CCCCNc1nnc(SCC(=O)c2c(N)n(C3CC3)c(=O)[nH]c2=O)s1	-0.8	-1.0	1.4	nt	nt	i	0.7
O=C(CCC(=O)Nc1ccc(F)cc1)N/N=C/c1ccccc1	-1.3	0.5	nt	1.6	-4%	i	nt
Cc1cccc(C)c1OCCCN1CCCC1	nt	2.6	-4.8	0.7	-7%	nt	0.75
CCNC(=O)CC1C(=O)N(CC)C(=S)N1NC(=O)c1cccnc1 (stereo unspecified)	-9.6	-3.8	1.1	-0.2	1%	i	0.73
O=C(CNc1cccc(S(=O)(=O)N2CCCCCC2)c1)Nc1cccc([N+](=O)[O-])c1	0.9	-1.9	2.1	nt	-12%	i	0.66
CCOc1ncccc1C(=O)Nc1ccc(-c2cn3ccsc3n2)cc1	nt	-0.8	-117	1.8	?	nt	0.73
CCN(CC(=O)Nc1ccc(NC(C)=O)cc1)C(=O)c1c(C)nn(-c2ccc(F)cc2)c1Cl	-0.4	-2.1	1.2	nt	nt	i	0.67
Cc1cccc(C(=O)NNC(=O)C2CCCCC2)c1O	-1.7	2.7	nt	nt	6%	i	nt
CCOc1ccc2nc(NC(=O)c3c([N+](=O)[O-])cnn3CC)sc2c1	nt	-2.1	5.3	1.5	6%	nt	0.68
CCc1ccc(C(=O)CN2C(=O)C(C)N(c3ccc(C)cc3)C2=O)cc1 (stereo unspecified)	-0.6	1.7	1.8	0.0	-5%	i	0.7
O=C(O)CSCC(=O)Nc1cccc(C(F)(F)F)c1	3.4	4.7	0.9	-0.4	-5%	i	0.75
Cc1ccc(C(C)C)c(OCC(=O)OCC(=O)NC2CC2)c1	-1.6	5.0	-1.4	nt	-8%	i	0.68
CCOc1cccc2cc(C(=O)Nc3cc(C)on3)c(=O)oc12	nt	0.8	-16	-3.4	-1%	nt	0.72
CC1CN(c2ccc(Cl)cc2)c2nc3c(c(=O)[nH]c(=O)n3C)n2C1 (stereo unspecified)	-0.5	5.3	0.0	-6.3	-4%	i	0.67
CCOC(=O)N1CCN(C(=O)COC(=O)c2oc3ccc(OC)cc3c2C)CC1	-12	-2.1	-73	-2.3	nt	i	0.67
O=C(Nc1cccc(-c2cnc3ccccc3n2)c1)c1ccc(Cl)cc1	-1.0	1.4	5.1	-2.4	0%	i	0.67
Cc1ccc2nc(-c3cccc(Br)c3)c(Cc3ccccc3C(F)(F)F)n2c1	-3.6	2.8	nt	nt	nt	i	nt
C=CCn1cnc2c(nnn2-c2ccc(Cl)cc2)c1=O	-1.6	0.6	-0.7	3.0	-2%	i	0.64
CCS(=O)(=O)c1nc(S(=O)(=O)c2ccc(Cl)cc2)c(N2CCOCC2)s1	-4.5	-0.4	5.2	4.6	nt	i	0.7
CCC(C(=O)Nc1ncccn1)(C(F)(F)F)C(F)(F)F	nt	-0.9	2.0	-1.5	9%	nt	0.74
Cc1ccc(C(=O)Cn2c(=N)n(N)c3ccccc32)cc1	0.4	1.7	2.0	5.3	nt	i	0.69
Cc1ccc(OCc2nnc(SCC(=O)NC3CCCCC3)n2C)cc1	nt	1.9	0.7	-2.4	19%	nt	0.74
NC1=NC[C@H](c2ccccc2)N1CC1CCCCC1	1.0	3.7	1.1	-3.8	nt	i	nt
COc1ccc(NC(=O)C2CC2(Cl)Cl)cc1S(=O)(=O)N1CCCCC1 (stereo unspecified)	3.8	1.1	nt	nt	1%	i	nt
COc1ccc2c(c1)CCc1sc(NC(=O)c3ccco3)nc1-2	nt	0.5	0.2	0.0	2%	nt	0.72
CC(C)=CC(=O)Nc1ccc(Cl)cc1	-3.1	1.2	2.7	-2.3	-5%	i	0.68
CC(C)N(C(=O)Cn1c(-c2ccccc2Cl)nc2ccccc21)c1ccccc1	nt	1.8	4.5	1.1	-6%	nt	0.69
O=C1NC(=NCc2ccccc2)NC1(c1ccccc1)c1ccccc1	2.3	-1.5	0.1	nt	-1%	i	0.67
CC1=C(C(=O)N2CCOCC2)CC(CC(=O)NCCCCc2ccccc2)C(=O)N1CCC1=CCCCC1 (stereo unspecified)	0.2	-0.2	nt	nt	nt	i	nt
O=C(/C=C/c1cc([N+](=O)[O-])ccc1OC(F)F)NCc1ccc(F)cc1	nt	-2.5	2.3	5.2	-2%	nt	0.74
Cc1ccc(C(=O)N2CCOCC2)cc1S(=O)(=O)N1CCCCC1	0.8	5.3	3.3	3.1	6%	i	0.68
COc1ccccc1NC(=O)CSc1nnc(CC(=O)Nc2ccccc2C)n1C	-2.4	0.8	4.1	2.5	-12%	i	0.68
Cc1nc2ccccc2n1CC(=O)OCC(=O)N1CCC(C)CC1	4.4	2.2	-4.4	nt	-4%	i	0.67
CN(C)S(=O)(=O)Nc1ccc2c(c1)Cc1ccccc1-2	-38	-0.5	4.7	2.5	5%	i	0.69
O=C(O)c1ccc(NS(=O)(=O)c2ccc3nnn(O)c3c2)cc1	nt	1.1	2.1	?	?	nt	0.67
COc1ccc(-n2ncc3c(N(C)C4CCCCC4)ncnc32)cc1	-5.7	2.7	3.0	?	nt	i	0.74
O=C(Nc1ccccc1F)c1ccn[nH]1	-1.7	-1.4	3.0	1.1	3%	nt	0.67
Cc1ccc(-c2cc(C(F)(F)F)n3ncc(C(=O)N4CCCCC4c4cccnc4)c3n2)cc1 (stereo unspecified)	1.0	-4.2	-114	-0.5	0%	i	0.71
CS(=O)(=O)c1ccc(-c2cccc(NC(=O)COc3ccc(Cl)cc3)c2)nn1	-1.9	4.4	1.8	5.1	nt	i	0.62
Cc1cc(SCc2cccc(Cl)c2)nc(=O)[nH]1	-0.5	1.8	1.1	9.4	nt	i	0.7
CCOc1ccc(C=NNC(=O)c2ccc(-n3cnnn3)cc2)cc1	3.1	1.2	-19	nt	nt	i	0.68
O=C(O)C(=O)Cc1c[nH]c2ccccc12	3.2	10	0.1	-2.2	?	i	0.68
Cc1c(/C=C2\SC(=O)N(CC(=O)Nc3ccc4c(c3)OCO4)C2=O)c2ccccc2n1C	7.0	6.9	-2.3	7.4	5%	i	0.68
O=C(c1c(F)cccc1F)N(C1CCCCC1)C1CCCCC1	-1.4	1.3	-0.3	-1.9	nt	i	0.7
COc1ccc(/C=C/C(=O)Nc2ccc(N3CCOCC3)cc2)cc1	nt	1.5	4.5	-0.4	?	nt	0.65
CCOC(=O)CN1N=C(c2ccc(Cl)cc2)CCC1=O	0.3	-1.7	5.2	4.3	-10%	i	0.63
CC(=O)Nc1ccccc1NC(=O)c1cccc2ccccc12	nt	0.2	1.5	3.7	nt	nt	0.7
CCOc1ccc(Cc2nnc(SCC(N)=O)n2C)cc1	nt	1.3	-1.8	3.9	3%	nt	0.66
CCn1ncc(Cl)c1C(=O)NC(=S)Nc1ccccc1Br	1.4	-0.4	nt	0.2	-2%	i	nt
COc1ccc(S(=O)(=O)N(C)C[C@@H]2OCc3cnnn3CCCC(=O)N([C@@H](C)CO)C[C@@H]2C)cc1	-0.5&-0.4&1.9	1.3	nt	nt	nt	i	nt

# Following part
mol	AF4-AF9 inh	HNF4A DNA FP	UCH37 inh	RanGTP-Impb inh	Vif A3G	FGF22 binding	E coli growth
CC1=CC(=C(C#N)C#N)C=C(C)N1CCN1CCN(C(=O)Nc2ccc(Cl)c(Cl)c2)CC1	nt	0.3	-72	-2.8	20%	nt	0.68
CC1CN(CC(=O)Nc2ccc(Br)cn2)CC(C)O1 (stereo unspecified)	3.4	-1.6	2.5	4.1	nt	i	0.72
O=C(NCc1ccco1)c1ccc(C(=O)NCc2ccco2)cc1	-1.8	-8.8	nt	nt	-6%	i	nt
CCOC(=O)C1=C(C)OC(=CC=Cc2ccccc2)C1=O	-4.0	6.3	nt	nt	18%	i	nt
Cc1nn(Cc2c(Cl)cccc2Cl)c(C)c1N	nt	1.6	1.9	-2.0	2%	nt	0.7
Cc1ccc(C(=O)Nc2cccc(-c3cnc4ccccc4n3)c2)cc1	nt	-5.1	2.4	4.4	1%	nt	0.7
COc1ccc(NC(=O)Nc2ccc(F)c(F)c2)c(OC)c1	0.8	2.5	1.2	-2.3	-16%	i	0.64
Cn1c(C(=O)O)ccc1S(=O)(=O)N(Cc1ccccc1)Cc1ccccc1	3.0	-3.5	0.8	2.4	3%	i	0.63
CC(OC(=O)Cc1c[nH]c2ccccc12)C(=O)c1ccccc1 (stereo unspecified)	-0.2	-2.1	-0.9	nt	2%	i	0.66
O=C(C[C@H]1C[C@@H]2c3cc(NC(=O)Nc4ccccc4)ccc3O[C@@H]2[C@@H](CO)O1)NCC1CC1	-3.8	-3.6	nt	nt	-4%	i	nt
COCCCN1CC(=O)N2C(c3ccc(OC)c(OC)c3)c3[nH]c4ccccc4c3C[C@H]2C1=O (stereo partly specified)	-5.1	-0.4	3.0	1.2	0%	i	0.61
COc1ccc(N2C(=O)/C(=C\c3ccco3)N=C2SCC(=O)NC(C)(C)C)cc1Cl	-57	8.7	1.2	9.2	20%	i	0.66
Nc1nc(Cl)nc(N(c2ccccc2)c2ccccc2)n1	5.6	1.3	2.8	0.0	18%	i	0.72
CSc1ccccc1Sc1cc(C(=O)O)c2ccccc2n1	nt	-2.5	9.9	2.6	nt	nt	0.67
COc1ccc(CN(C)C(=O)c2ccc3c(=O)n4c(nc3c2)CCC4)cc1	-5.6	-2.5	-0.6	3.4	nt	i	0.66
Cc1ccc(CN(CC(=O)NCc2ccc3c(c2)OCO3)C(=O)c2csnn2)cc1	0.6	-0.9	2.1	11	nt	i	0.65
CC(Oc1ccc(Br)cc1)C(=O)NCc1ccccn1 (stereo unspecified)	-2.4	2.4	1.5	1.9	8%	i	0.7
O=C(Nc1ccc(O)c(-c2nc3ccccc3s2)c1)C1=COCCO1	3.8	1.8	0.2	2.8	-22%	i	0.73
Cc1ccc2c(c1)c1c(n2CC(O)Cn2nc(C)c(Br)c2C)CCCC1 (stereo unspecified)	nt	-2.8	0.0	-2.9	-3%&23%	nt	0.64
COc1ccc(N2CCN(C(=S)Nc3ccccc3OC)CC2)cc1	1.5	-2.3	-0.5	-0.5	2%	i	0.66

# Retrieved one by one from the entries so far, 2 records:
mol	AF4-AF9 inh	HNF4A DNA FP	UCH37 inh	RanGTP-Impb inh	Vif A3G	FGF22 binding	E coli growth
CC(Oc1ccc(Br)cc1)C(=O)NCc1ccccn1 (stereo unspecified)	-2.4	2.4	1.5	1.9	8%	i	0.7
COc1ccc(N2C(=O)/C(=C\c3ccco3)N=C2SCC(=O)NC(C)(C)C)cc1Cl	-57	8.7	1.2	9.2	20%	i	0.66

# (listing goes on)
mol	AF4-AF9 inh	HNF4A DNA FP	UCH37 inh	RanGTP-Impb inh	Vif A3G	FGF22 binding	E coli growth
COc1ccc(NC(=O)C(c2ccnc3ccccc23)n2c(=O)c(-c3ccccc3)nc3ccccc32)cc1 (stereo unspecified)	8.7	0.0	nt	nt	nt	i	nt
CC(=O)Nc1ccc(S(=O)(=O)N2CCC(c3nc4ccc(C)cc4[nH]3)CC2)cc1	nt	1.1	28*	-2.2	?	nt	0.7
Cc1ccc2cccc(NC(=S)NC(=O)c3ccccc3)c2n1	nt	-0.8	1.3	2.1	0%	nt	0.71
Cc1nnc(N2C(=O)c3cccc4cccc(c34)C2=O)s1	nt	0.6	-43	2.1	29%	nt	0.7
